NS1 function inh: inhibitors of influenza NS1 protein function; S. cerevisiae slowed by influenza A NS1, growth recovery by OD600; Potency, µM (series often up to 46.1 µM), for inactives: at the highest dose activity, positive = more growth; 270,000 tested, 0.4% active; AID 2326; active means well fitted rising curve with a large enough effect; inconclusive means small, poorly fitted or top-dose-only effect; inactive means no such curve, though single readings can be large or run the other way; further: nearly all actives have a fitted effect of over 50% in size
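Read-out: OD600 growth recovery of NS1-expressing budding yeast. Cells grown overnight at 30C in -URA glucose medium, washed, resuspended and diluted 1:100 in 2% galactose assay medium, pH 6.0. Same strain lacking NS1 served as positive control.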
SARS PLP yeast: blocks SARS-CoV papain-like protease in a yeast assay; S. cerevisiae expressing SARS-CoV PLpro, growth rescue; control for the full effect not named in the record; Potency, µM (highest dose often 32.9 µM), for inactives: at the highest dose activity, positive = growth rescue; 330,000 tested, 0.19% active; AID 485353; active means well fitted rising curve with a large enough effect; inconclusive means small, poorly fitted or top-dose-only effect; inactive means no such curve, though single readings can be large or run the other way; further: 0% is about no effect; nearly all actives have a fitted effect of over 55% in size; growth read by luminescence after 48 h
2A StopGo: FMDV 2A StopGo reporter, luciferase signal | human cells with a luciferase reporter of 2A StopGo recoding; control for the full effect not named in the record | Potency, µM (titrated, usually from 57.9 µM), for the others: top-dose signal change, negative = less light | 410,000 tested, 1.2% active; active = well fitted falling curve with a large enough effect; inconclusive = small, poorly fitted or top-dose-only effect; inactive = no such curve, though single readings can be large or run the other way; tested in HEK293T cells; further: on the % scale 0 is the no-effect control and ±100 the full control effect; nearly all actives have a fitted effect of over 45% in size; luciferase light after 4 h
RE007 growth inh: less growth of the S. pombe RE007 Vpr strain; S. pombe RE007 Vpr strain, BacTiter-Glo ATP luminescence, 24 h; control for the full effect not named in the record; Potency, µM (titrated, usually from 92.2 µM), for the others: at the top dose activity change, negative = less growth; 360,000 tested, 0.21% active; AID 651644; active = well fitted falling curve with a large enough effect; inconclusive = small, poorly fitted or top-dose-only effect; inactive = no such curve, though single readings can be large or run the other way;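 further: on the % scale 0 is the no-effect control and ±100 the full control effect; nearly all actives have a fitted effect of over 50% in size; the assay follows cell death caused by Vpr and the record does not say whether a fall means rescue or toxicity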
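Fission yeast RE007 carrying one integrated HIV-1 vpr copy, seeded at OD 0.01 in PMG+AL medium with 23 nL pinned compound. Grown 24 h at 30 degrees; viability read by BacTiter-Glo luminescence after 5 min.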
Cruzain inh Det: inhibitors of Trypanosoma cruzi cruzain with detergent. P25779. purified cruzain, Z-FR-AMC fluorescence, 0.01% Triton. Potency, µM, inactives show max response, negative = inhibition, hits mostly inhibitors. 200,000 tested, 0.43% active. AID 1478;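 further: plate controls were neutral wells for no effect and buffer without enzyme for full effect; nearly all actives have a fitted effect of over 40% in size; top concentration of the series not given in the record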
Target sequence (P25779 123-467 limits assumed): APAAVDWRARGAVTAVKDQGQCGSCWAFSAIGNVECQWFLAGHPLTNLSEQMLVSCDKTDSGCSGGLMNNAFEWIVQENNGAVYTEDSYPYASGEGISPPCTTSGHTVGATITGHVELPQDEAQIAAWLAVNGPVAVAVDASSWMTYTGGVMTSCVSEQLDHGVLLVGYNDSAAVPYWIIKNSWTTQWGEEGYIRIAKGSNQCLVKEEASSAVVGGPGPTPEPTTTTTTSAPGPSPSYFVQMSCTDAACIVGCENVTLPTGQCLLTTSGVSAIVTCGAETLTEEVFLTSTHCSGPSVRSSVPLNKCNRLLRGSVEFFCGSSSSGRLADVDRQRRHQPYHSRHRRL
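Steps: dispense cruzain (1.5 nM final) in acetate buffer pH 5.5 with DTT and 0.01% Triton X-100; pin-transfer compounds; incubate 15 min RT; add Z-FR-AMC (2 uM final); read fluorescence every 30 s, using the 60 s intensity change.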
Cruzain inh noDet: inhibitors of Trypanosoma cruzi cruzain without detergent | P25779 | purified cruzain, Z-FR-AMC fluorescence, no detergent | Potency, µM, for the others: max response, negative = inhibition, actives largely listed as inhibitors | 200,000 tested, 2.3% active | AID 1476;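 further: plate controls were enzyme without inhibitor for no effect and buffer without enzyme for full effect; nearly all actives have a fitted effect of over 40% in size; top concentration of the series not given in the record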
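Purified cruzain at 1.5 nM, pre-incubated 15 min with compound at room temperature in 100 mM sodium acetate pH 5.5, 5 mM DTT, 0.00005% Triton X-100. Reaction started with 2 uM Z-FR-AMC; AMC fluorescence increase over 60 s gives rate.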
MARV entry inh: inhibitors of Marburg virus binding or cell entry | Marburg virus pseudotyped entry inhibition, cell reporter; control for the full effect not named in the record; about a third of the inactives were read at about 46 µM | Potency, µM (titrated, usually from 37.8 µM), for inactives: at the top dose activity change, negative = inhibition, usual class: inhibitors | 300,000 tested, 1.8% active | AID 540276; active = well fitted inhibition curve with a large enough effect; inconclusive = small, poorly fitted or top-dose-only effect, or effect the other way; inactive = flat fitted curve, though single readings scatter; tested in HEK293 cells; about a fifth of its hits are not listed in these tables; further: on the % scale 0 is the no-effect control and ±100 the full control effect; luciferase read-out
LASV entry inh: inhibitors of Lassa virus binding or cell entry; Lassa virus pseudotype entry inhibition, cell reporter; control for the full effect not named in the record; Potency, µM (doses to about 37.9 µM), inactives show at the top dose activity change, negative = inhibition, most hits filed as inhibitors; 300,000 tested, 1.2% active; AID 540256; active means well fitted inhibition curve with a large enough effect; inconclusive means small, poorly fitted or top-dose-only effect, or effect the other way; inactive means flat fitted curve, though single readings scatter; tested in HEK293 cells; further: on the % scale 0 is the no-effect control and ±100 the full control effect; nearly all actives have a fitted effect of over 50% in size; luciferase read-out
* = called active by the depositor; u = inconclusive; x = not tested or not shown; & = joins results of further samples; [ ] = remark or other dose. Unless noted, the call rests on the fitted dose curve; in most records, active means well fitted curve in the direction sought with a large enough effect; inconclusive means small, poorly fitted or top-dose-only effect, or another doubt; inactive means no such curve, though single readings can be large; an effect the other way counts as inactive or inconclusive. Potency means the concentration at half of the fitted maximal effect. Compounds as they come; about 4.8% have a hit in one of these screens.

[1] COc1ccc(OC)c(C2N(c3ccc(Cl)cc3)C(=O)C3CCCN32)c1 (stereo not drawn)
[2] Cc1ccc(-n2ncc3c(=O)n(CC(=O)N4CCCc5ccccc54)cnc32)cc1C
[3] CCC1SC2=NC(C)=C(C(=O)OCCOC)C(/C=C/c3ccccc3OC)N2C1=O (stereo not drawn)
[4] O=C(Nc1ccc(Cl)cc1)Nc1ccc2c(c1)OCO2
[5] O=C(CN(CCc1ccccc1)C(=O)Cn1nnc(-c2cccs2)n1)NCc1ccco1
[6] COCCOC(=O)C1=C(C)NC(SCC(=O)NC(C)(C)C)=C(C#N)C1c1ccco1 (stereo not drawn)

compound no.	1	2	3	4	5	6
NS1 function inh	-15%	-36%	u	-2%	-10%	1%
SARS PLP yeast	15%	-2%	8%	-2%	-1%	u
2A StopGo	-10%	u	15%	34%[activator]	x	10%
RE007 growth inh	10%	0%	2%	-11%	16%	-6%
Cruzain inh Det	-1.9%	-6.4%	-9.0%	x	1.7%	-4.1%
Cruzain inh noDet	u	-9%	u	x	10%	12%
MARV entry inh	-1%	u	-8%[46.1 µM]	x	-8%	8%&-2%
LASV entry inh	5%	-18%	0%	x	15%	-28%

[7] CCOCc1cnc(C)nc1NCC(=O)c1c(C)[nH]c2cc(C)ccc12
[8] C=CCN(C(=O)c1csnn1)C(C(=O)NC(C)(C)C)c1ccncc1 (stereo not drawn)
[9] CCOC(=O)c1[nH]c(C)c(CCC(=O)N2CCN(c3ccc(OC)cc3)CC2)c1C
[10] Nn1c(SCC(=O)Nc2cc(C(F)(F)F)ccc2Cl)nncc1=O
[11] Cc1ccc(-c2nnn(CC(=O)NC3CCN(Cc4ccccc4)CC3)n2)cc1
[12] CCC1CCCCN1Cc1nc2ccccc2c(=O)n1CC(C)=O (stereo not drawn)

compound no.	7	8	9	10	11	12
NS1 function inh	0%	-1%	x	13%	1%	4%
SARS PLP yeast	-2%	-1%	x	8%	7%	0%
2A StopGo	x	-6%	4%	u	-10%	3%
RE007 growth inh	236%	13%	x	18%	-2%	-21%
Cruzain inh Det	1.9%	x	4.0%	x	-3.0%	x
Cruzain inh noDet	-7%	x	-4%	x	9%	x
MARV entry inh	1%	u	x	3%	u	x
LASV entry inh	-1%	10%[46.1 µM]	-6%[46.1 µM]	1%	6%	x

[13] CCOC(=O)C1(Cc2ccccc2C(F)(F)F)CCN(CC(O)CO)CC1 (stereo not drawn)
[14] CCCC/C(C)=N/NC(=O)c1cn(-c2ccccc2)nc1-c1ccccc1
[15] CCC1CN(C(=O)N2CCC(C(=O)NCCOC)CC2)c2ccccc2O1 (stereo not drawn)
[16] COC(=O)c1ccc(NC(=O)CCn2cnnn2)cc1
[17] COc1cccc(N2CCN(C(=O)c3ccc(Cl)c(NC4=NC5CS(=O)(=O)CC5S4)c3)CC2)c1 (stereo not drawn)
[18] COc1ccc(CC(=O)Nc2ccc(C(=O)NC(C)(C)C)cc2)cc1OC

compound no.	13	14	15	16	17	18
NS1 function inh	-4%	u	x	x	9%	4%
SARS PLP yeast	-1%	-21%	x	x	-3%	0%
2A StopGo	-18%	-22%	-23%	-10%	-17%	-18%
RE007 growth inh	-17%	11%	x	x	-2%	-8%
Cruzain inh Det	x	-5.2%	-0.9%	0.3%	x	x
Cruzain inh noDet	x	1%	2%	-3%	x	x
MARV entry inh	u	0%	x	x	-7%[46.1 µM]	u
LASV entry inh	-11%	2%	-20%[46.1 µM]	u	-6%[46.1 µM]	-2%[46.1 µM]

[19] C[C@@H](C(=O)Nc1ccc(SC(F)F)cc1)N1C(=O)C2CCCCC2C1=O (stereo partly drawn)
[20] COc1ccc(-c2cc(C(=O)NCCCN3CCOCC3)c3cc(C(C)C)ccc3n2)cc1
[21] CCOP(=O)(OCC)/C(=C/N1CCCCC1)NC(=O)c1ccccc1
[22] Cc1[nH]nc(N=CC2=C(O)CC(C)(C)CC2=O)c1-c1ccccc1
[23] CCCCOC(=O)c1ccc(N=Nc2c(C)c(C#N)c(O)[nH]c2=O)cc1
[24] O=C(O)CC/C(=N\Nc1ccc([N+](=O)[O-])cc1S(=O)(=O)N1CCOCC1)c1cccs1

compound no.	19	20	21	22	23	24
NS1 function inh	x	-1%	3%	-34%	0%	-1%
SARS PLP yeast	-4%	-2%	0%	-13%	3%	0%
2A StopGo	-1%	0%	7%	-18%&-22%	18%	20%
RE007 growth inh	1%	-12%	-17%	3%&-2%	-8%	-6%
Cruzain inh Det	x	x	x	-8.1%	x	x
Cruzain inh noDet	x	x	x	10%	x	x
MARV entry inh	18%	x	2%[46.1 µM]	-4%[46.1 µM]	x	0%[46.1 µM]
LASV entry inh	3%	x	-5%	-23%[46.1 µM]	x	4%

From compound 22 to 24, copied from above:
[22] Cc1[nH]nc(N=CC2=C(O)CC(C)(C)CC2=O)c1-c1ccccc1
[23] CCCCOC(=O)c1ccc(N=Nc2c(C)c(C#N)c(O)[nH]c2=O)cc1
[24] O=C(O)CC/C(=N\Nc1ccc([N+](=O)[O-])cc1S(=O)(=O)N1CCOCC1)c1cccs1

compound no.	22	23	24
NS1 function inh	-34%	0%	-1%
SARS PLP yeast	-13%	3%	0%
2A StopGo	-18%&-22%	18%	20%
RE007 growth inh	3%&-2%	-8%	-6%
Cruzain inh Det	-8.1%	x	x
Cruzain inh noDet	10%	x	x
MARV entry inh	-4%[46.1 µM]	x	0%[46.1 µM]
LASV entry inh	-23%[46.1 µM]	x	4%

Later entries:
[25] O=C(Nc1cccnc1)c1cc(Br)c(Br)s1
[26] CCn1cc(S(=O)(=O)c2ccccc2)c(=O)c2cc(F)c(N3CCN(C)CC3)cc21
[27] O=C(NCCC1CC1(Cl)Cl)c1ccc([N+](=O)[O-])cc1 (stereo not drawn)
[28] Cc1[nH]c(C)c(S(=O)(=O)NCC(C)c2ccccc2)c1C(=O)N1CCCCC1 (stereo not drawn)
[29] O=C(CSc1nc2ccccc2s1)NCCCN1CCOCC1
[30] Cc1cc(C)cc(N2CCCn3c2nc2c3c(=O)[nH]c(=O)n2C)c1

compound no.	25	26	27	28	29	30
NS1 function inh	x	-4%	1%	5%	-13%	6%
SARS PLP yeast	-3%	4%	-3%	2%	-3%	1%
2A StopGo	20%	-8%	39%[activator]	21%	10%	-13%
RE007 growth inh	u	-3%	-21%	0%	-4%	-2%
Cruzain inh Det	x	x	x	x	3.9%	x
Cruzain inh noDet	x	x	x	x	-3%	x
MARV entry inh	18%[46.1 µM]	x	25%	x	14%	-7%[46.1 µM]
LASV entry inh	19%	x	14%	x	12%	-1%[46.1 µM]

[31] Cc1ccc(N(Cc2cccs2)C(=O)c2ccccc2Cl)cc1
[32] Cc1occc1-c1nnc(SCC(=O)Nc2ccccc2)n1C(C)c1ccccc1 (stereo not drawn)
[33] Cc1ccc(C(=O)N2c3ccccc3CC2C)o1 (stereo not drawn)
[34] CCOC(=O)C1CCN(c2c(NCc3ccc(C(=O)NCCC(C)C)cc3)c(=O)c2=O)CC1
[35] COc1ccc(CCNC(=O)c2ccccc2-c2ccccc2C(=O)O)cc1OC
[36] CCOc1ccc2[nH]c3nc(SCC(=O)NC4CC4)nnc3c2c1

compound no.	31	32	33	34	35	36
NS1 function inh	x	-45%	-8%	-1%	3%	13%
SARS PLP yeast	x	-4%	-2%	-1%	1%	0%
2A StopGo	u	-27%	25%	-2%	4%	3%
RE007 growth inh	x	-8%	u	0%	-5%	-4%
Cruzain inh Det	-5.3%	-4.9%	x	-5.5%	x	x
Cruzain inh noDet	-2%	-6%	x	1%	x	x
MARV entry inh	u	-22%	u	4%&-7%	u	5%[46.1 µM]
LASV entry inh	0%[46.1 µM]	-17%	u	11%	0%	x

[37] CCOC(=O)Cn1cnc(C)c1
[38] COc1ccccc1Nc1nnc(SCc2nnc(-c3cc(OC)c(OC)c(OC)c3)o2)s1
[39] O=C1NC(=O)/C(=C\c2ccc(OCc3cccc(C(=O)O)c3)c(Cl)c2)N1
[40] Cc1cc(C)nc(NC(=O)c2ccc(C)c([N+](=O)[O-])c2)n1
[41] Cc1nnc(SCC(=O)N2N=C(c3ccc(Cl)cc3)CC2c2ccco2)[nH]c1=O (stereo not drawn)
[42] COCCn1c(=N)c(C(=O)NCCc2ccccc2)cc2c(=O)n3cccc(C)c3nc21

compound no.	37	38	39	40	41	42
NS1 function inh	x	-1%	x	6%	x	x
SARS PLP yeast	x	-10%	1%	1%	3%	x
2A StopGo	-6%	0%	-65%	-9%	0%	-14%
RE007 growth inh	0%	-8%	-8%	0%	u	18%
Cruzain inh Det	x	-5.8%	x	8.8%	x	x
Cruzain inh noDet	x	u	x	-3%	x	x
MARV entry inh	-7%	u	u	-26%	2%[46.1 µM]	u
LASV entry inh	6%	-27%	6.3µM*	1%	12%	-4%

[43] CCOC(=O)Nc1ccc2c(c1)N(C(=O)CN1CCN(C)CC1)c1ccccc1S2
[44] Cc1cccc(N(Cc2ccccc2)C(=O)c2cc(S(=O)(=O)N3CCOCC3)ccc2F)c1
[45] C=CCSc1nncn1/N=C/c1ccc(OC)cc1
[46] CC(C)C(=O)OCc1cc(=O)n2nc(C3CC3)sc2n1
[47] N#CC1=C(N)Oc2c(ccc3cccnc23)C1c1ccccc1 (stereo not drawn)
[48] Cc1cc(=O)[nH]c(SCC(=O)NCc2ccc3c(c2)OCO3)n1
[49] Cc1cc(C(F)(F)F)n2nc(-c3cccs3)cc2n1

compound no.	43	44	45	46	47	48	49
NS1 function inh	-11%	x	-16%	x	-4%	12%	4%
SARS PLP yeast	4%	6%	4%	x	0%	0%	-1%
2A StopGo	22%	19%	64%[activator]	15%	u	5%	13%
RE007 growth inh	-2%	11%	8%	x	1%	24%	-3%
Cruzain inh Det	0.7%	x	-6.4%	-3.6%	x	x	x
Cruzain inh noDet	-8%	x	-6%	-5%	x	x	x
MARV entry inh	u	-20%[46.1 µM]	22%	x	x	-18%[46.1 µM]	u
LASV entry inh	-14%	u	2%	3%[46.1 µM]	x	u	0%
